eIF4H inh: human eIF4H binding inhibitors, primary screen, translation initiation inhibitor project, biochemical, uHTS, fluorescence polarization; Eukaryotic translation initiation factor 4H (Homo sapiens), Q15056; inhibition, % at 35 µM; eIF4H fluorescence polarization binding assay; 290,000 compounds, 0.94% hits;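 active = 50% or more with normal probe brightness, or confirmed in later tests; about a fifth of its hits are not listed in these tables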;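 note: calls also rest on retests at 20 µM and on dose response follow-up; 0% = protein and probe with vehicle and 100% = probe without protein; strong numbers were not always called active; many hits fall short of the cut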
CSC inhib: cancer stem cell viability inhibitors, primary screen, luminescence. cancer stem cell-like cells viability. inhibition, % at 7.5 µM. 300,000 compounds, 1.1% hits. AID 2717, 2010;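 active = mean at 75% or more and at least half the replicates too; tested in HMLE shEcad cells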;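 note: 0% = median of negative and 100% = median of positive control wells; the first replicate is given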
Rce1 inh: yeast Rce1p protease inhibitors, primary screen, biochemical, fluorescence, cell-free homogeneous. yeast membranes, quenched prenylated peptide cleavage fluorescence. calls only. 290,000 compounds, 0.27% hits;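 active = fall in fluorescence gain of 50% or more versus controls, with final raw signal at or below 3038400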;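 note: plate controls were neutral control wells for no effect and wells lacking membranes for full effect; tested at 10 µM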
Target sequence (Q03530 whole entry, looked up): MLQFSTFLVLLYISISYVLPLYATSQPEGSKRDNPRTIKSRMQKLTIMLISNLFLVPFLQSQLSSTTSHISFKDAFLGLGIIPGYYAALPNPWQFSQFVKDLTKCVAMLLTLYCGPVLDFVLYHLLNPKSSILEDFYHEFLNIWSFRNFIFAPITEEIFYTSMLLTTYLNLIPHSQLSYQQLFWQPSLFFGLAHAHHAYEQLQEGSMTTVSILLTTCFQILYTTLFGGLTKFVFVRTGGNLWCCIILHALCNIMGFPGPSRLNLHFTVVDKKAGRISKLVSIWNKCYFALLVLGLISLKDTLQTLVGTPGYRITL
MT1-MMP act inh: blockers of MT1-MMP proenzyme processing, primary screen, HT1080 RFP-PRO-GFP cells, GFP/RFP fluorescence; Matrix metalloproteinase-14 (Homo sapiens), P50281; GFP/RFP ratio fluorescence, overnight; percent of plate control window, DMSO zero; GFP/RFP ratio change, % at 20 µM; 360,000 compounds, 0.061% hits;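 active = GFP/RFP ratio change of at least 30% with cell ATP level not reduced by more than half and red fluorescence within 50% of control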; note: strong numbers were not always called active
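Material: RFP-PRO-GFP reporter HT1080 cells. Dosing: single-point 20 µM compound, 1% DMSO. Controls: DMSO and RFP-L50D-GFP cell wells. Timing: cells overnight before dosing, compound overnight, 37 °C, 5% CO2. Measure: GFP/RFP fluorescence ratio.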
UUG fidelity: modulators of yeast start codon fidelity, primary screen, whole organism, S. cerevisiae, single point, plate reader; activity score, % at 18.7 µM; 350,000 compounds, 0.13% hits; S. cerevisiae UUG-firefly luciferase reporter, luminescence/redox ratio;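 active = replicate mean at a twofold rise or more, about +100% in these data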;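 note: firefly luciferase made from a UUG start codon reports start codon fidelity; reporter light over untreated wells divided by growth signal over untreated wells; some hits fall short of that in this replicate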
Env fusion inh: inhibitors of HIV-1 Env-driven cell-cell fusion, primary screen, HeLa-JRFL effector, CEM21 target cells, luciferase; inhibition, % at 12.3 µM; 360,000 compounds, 1.1% hits; AID 651610, 2012;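 active = mean replicate inhibition score of at least 50 and every replicate individually at or above 50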;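 note: 0% = plate neutral controls and 100% = maraviroc near 300 nM; one replicate is shown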
PABP FP inh: PABP poly(A) RNA binding inhibitors, primary screen, biochemical, fluorescence polarization, uHTS | Polyadenylate-binding protein 1 (Homo sapiens), P11940 | inhibition, % at 35 µM | 290,000 compounds, 1% hits;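 active = 50% or more with normal probe brightness, or confirmed in later tests; about a fifth of its hits are not listed in these tables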;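 note: calls also rest on retests at 20 µM and on dose response follow-up; controls were probe without protein and protein plus probe with vehicle; some compounds called inactive have numbers as strong as hits; many hits fall short of the cut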
Target sequence (P11940 whole entry, looked up): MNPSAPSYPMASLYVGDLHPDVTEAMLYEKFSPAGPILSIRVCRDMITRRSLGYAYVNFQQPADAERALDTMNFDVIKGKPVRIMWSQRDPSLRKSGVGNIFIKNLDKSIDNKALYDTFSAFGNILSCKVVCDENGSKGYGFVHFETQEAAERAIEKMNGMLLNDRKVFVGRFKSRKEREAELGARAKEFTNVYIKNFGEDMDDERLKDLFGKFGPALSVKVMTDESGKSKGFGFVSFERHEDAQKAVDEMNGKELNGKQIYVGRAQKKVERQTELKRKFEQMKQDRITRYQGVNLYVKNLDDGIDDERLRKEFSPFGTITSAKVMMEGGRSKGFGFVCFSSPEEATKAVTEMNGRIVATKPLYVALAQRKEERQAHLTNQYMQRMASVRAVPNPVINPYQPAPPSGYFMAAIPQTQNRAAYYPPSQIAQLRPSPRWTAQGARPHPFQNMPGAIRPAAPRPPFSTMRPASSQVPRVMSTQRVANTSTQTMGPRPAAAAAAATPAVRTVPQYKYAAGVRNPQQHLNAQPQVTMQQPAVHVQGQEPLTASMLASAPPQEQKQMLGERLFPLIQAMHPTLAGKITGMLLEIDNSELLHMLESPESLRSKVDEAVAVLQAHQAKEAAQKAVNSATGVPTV
MT1-MMP act inh RFP: second read-out of MT1-MMP act inh, no call of its own (marks repeat the call); RFP signal change, %; measured here: RFP expression control read;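 0 = vehicle wells; hits needed this value within 50% of zero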
* marks the source's active call; other numbers are inactive results; i = inactive; . = no result given.

1) CCOC(=O)c1c(NC(=O)CN(CC)CC)sc2c1CCC2
2) COC(=O)COc1nc(C)c(Br)c(OC)n1
3) CCOc1ccc(-n2cnc3sc(C)c(C)c3c2=O)cc1
4) Cc1ccccc1C(=O)NNC(=O)c1cccc([N+](=O)[O-])c1
5) O=C(C1CCN(C2CCN(Cc3ccc4c(c3)CCO4)CC2)CC1)N1CCOCC1
6) CCOC(=O)C1CCN(CC(C)(C)NS(=O)(=O)c2ccc(Cl)cc2)CC1
7) O=c1c2ccccc2nc2n1CCO2
8) CN(C(=O)C1CCC(=O)N(Cc2cccc(F)c2)C1)C1CCCCC1 (centres undefined)
9) O=C(O)CCN(CCC(=O)O)S(=O)(=O)c1ccccc1
10) O=C(OC(C(=O)NCC1CCCO1)c1ccccc1F)c1ccco1 (centres undefined)

assay / compound	1	2	3	4	5	6	7	8	9	10
eIF4H inh	-7	-5	-6	-9	10	4	-10	5	-8	-4
CSC inhib	1	-13	4	-4	16	2	-13	9	-9	-13
Rce1 inh	i	i	i	i	i	i	i	i	.	i
MT1-MMP act inh	-6	0	3	0	7	3	0	0	5	-1
MT1-MMP act inh RFP	-2	0	-2	1	9	0	4	-1	4	-1
UUG fidelity	5	-3	-10	.	-12	-3	-12	3	-10	-14
Env fusion inh	9	.	2	6	3	21	-4	-84	0	-20
PABP FP inh	-1	-2	1	-3	-5	6	2	5	3	-4

11) COc1ccc(CCN2CC(C(=O)NCCN3CCCC3=O)CCC2=O)cc1 (centres undefined)
12) COc1cccc(C(C)(O)c2nc(-c3ccc(N(C)C)cc3)cs2)c1 (centres undefined)
13) COc1ccc(/C=N/NC(=O)C(=O)N2CCCCCC2)cc1O
14) Cc1ccc(C(=O)C2CCN(S(=O)(=O)c3ccccc3C(=O)O)CC2)cc1
15) CCC1OC(=O)C(C)C(OC2C[C@@](C)(OC)C(O)C(C)O2)C(C)C(O[C@@H]2OC(C)CC(N(C)C)C2O)[C@](C)(O)CC(C)C(=NOCOCCOC)C(C)C(O)[C@]1(C)O (some centres undefined)
16) COc1ccc(CNC(=O)c2csc(Cc3ccccc3)n2)cc1
17) CCCCN(C(=O)CSc1nn(-c2ccc(F)cc2)c(=S)s1)c1c(N)n(CCCC)c(=O)[nH]c1=O
18) CCOc1ccc(NC(=O)CCNC(=O)C2CCN(S(=O)(=O)c3ccccc3)CC2)cc1
19) COc1ccc(CCNC(=O)C(=O)NN=C2CCCCCCC2)cc1OC
20) O=C(NCC(=O)N(CC1CCCO1)C(C(=O)NC1CCCCC1)c1cccnc1)c1cccs1 (centres undefined)

assay / compound	11	12	13	14	15	16	17	18	19	20
eIF4H inh	-2	.	5	-11	.	1	.	-8	-1	-2
CSC inhib	3	.	-1	.	-7	.	6	-24	21	-10
Rce1 inh	i	.	.	i	.	i	.	i	i	i
MT1-MMP act inh	-3	1	0	-1	-14	1	-18	-1	-1	4
MT1-MMP act inh RFP	0	-24	3	3	-1	4	-14	4	2	4
UUG fidelity	-8	-11	-14	5	-12	-12	.	-9	-11	-15
Env fusion inh	-9	48	3	-2	-67	.	4	-7	9	-3
PABP FP inh	-5	.	4	10	.	-6	.	-1	16	12

21) O=C(c1ccco1)N(CCO)Cc1cc2cc3c(cc2[nH]c1=O)OCO3
22) O=C(COC(=O)[C@@H]1CC(O)CN1S(=O)(=O)c1ccc(Cl)cc1)NC(=O)NCc1ccccc1 (some centres undefined)
23) Cn1c(=O)[nH]c(=O)c2c1nc(OC(=O)c1ccccc1)n2CC(O)COc1ccc(F)cc1 (centres undefined)
24) COc1cc(/C=C2/C(=O)ON=C2C)ccc1OCc1ccccc1F
25) COc1ccc2[nH]cc(CCCN3C(=O)c4ccccc4C3=O)c2c1
26) COCc1cc(Sc2c(Cl)cccc2Cl)nc(-c2ccccc2)n1
27) O=C(N/N=C/c1cc2c(cc1Cl)OCO2)c1ccc2c(c1)OCCO2
28) COc1ccc2oc(C(=O)OCC(=O)N(C)CC(=O)Nc3ccc(C)cc3)c(C)c2c1
29) COc1cccc(OC)c1C(=O)Nc1ccc2c(c1)Cc1ccccc1-2
30) NC(=O)C(CC(=O)O)NC(=O)[C@@H]1CCCNc2c(I)cc([N+](=O)[O-])cc2C(=O)N[C@@H](CO)C(=O)N[C@@H](Cc2ccc(O)cc2)C(=O)N1 (some centres undefined)

assay / compound	21	22	23	24	25	26	27	28	29	30
eIF4H inh	-4	.	-5	8	-7	4	-4	.	-8	22
CSC inhib	-16	-12	.	0	-4	7	10	-4	-12	-2
Rce1 inh	i	i	i	i	i	i	i	i	i	.
MT1-MMP act inh	-2	0	-2	6	2	-2	2	2	-3	2
MT1-MMP act inh RFP	1	2	-3	-4	0	-3	-3	4	-1	5
UUG fidelity	3	-8	18	-8	-9	2	.	4	.	9
Env fusion inh	5	3	-39	-285	-16	.	-14	5	-2	.
PABP FP inh	-4	.	-9	35	-14	4	-1	.	8	0

31) CCCc1cc(=O)[nH]c(SCC(=O)N2CCC(C)CC2)n1
32) O=C(NC1CC(=O)N(c2ccc(Cl)cc2)C1)C1CC1 (centres undefined)
33) CN(C)c1nc(N(C)C)nc(N(C#N)Cc2ccc(Cl)cc2)n1
34) COc1ccc(OC)c(-c2csc(N3CCC(c4ccccc4)CC3)n2)c1
35) CC(Oc1ccc(F)cc1)c1ccnc2nc(/N=C/N(C)C)nn12 (centres undefined)
36) CNC(=S)N(CCc1ccccc1)Cc1cc2cc(OC)c(OC)cc2[nH]c1=O
37) COc1cccc(-c2csc(N3CCN(Cc4ccccc4)CC3)n2)c1
38) COc1cc(NC(=O)c2cccs2)ccc1NC(=O)Cc1ccccc1
39) CC(C)Cn1c(=O)c2ccccc2n2c(CCC(=O)O)nnc12
40) Cc1cc(NS(=O)(=O)c2ccc(NC(=O)c3cc(-c4cccnc4)nc4ccc(Cl)cc34)cc2)no1

assay / compound	31	32	33	34	35	36	37	38	39	40
eIF4H inh	-2	.	-3	5	-5	-8	2	0	0	-10
CSC inhib	-8	-5	15	.	-12	8	-4	-5	5	-6
Rce1 inh	i	i	i	i	i	i	i	i	i	i
MT1-MMP act inh	2	2	-1	-1	-2	-2	-6	2	-4	8
MT1-MMP act inh RFP	4	3	-1	1	-3	-2	-3	9	2	-1
UUG fidelity	-8	.	6	.	.	-11	-12	-21	-24	-17
Env fusion inh	.	5	9	3	9	-9	9	.	-13	-41
PABP FP inh	-3	.	3	-1	-2	-4	8	-17	-2	3

41) Cc1cc(OC(=O)c2c(Cl)cccc2Cl)nc(C)n1
42) Cc1cccc2c1N(CCCOc1ccc(C(C)(C)C)cc1)C(=O)C2=O
43) O=P(COCCOCCOCCOCP(=O)(c1ccccc1)c1ccccc1)(c1ccccc1)c1ccccc1
44) COc1cccc(Cn2cc(-c3cccc(C(F)(F)F)c3)nn2)c1
45) C=CCNC(=O)COC(=O)c1oc2ccccc2c1CSC1CCCCC1
46) CC(=O)c1ccccc1NS(=O)(=O)c1cccc2nonc12
47) Cc1ccc(S(=O)(=O)C(CNC(=O)C(C)C)c2cccs2)cc1 (centres undefined)
48) COc1ccc(C(=O)NC2CC2)cc1OC1CCN(Cc2ccc(NC(C)=O)cc2)CC1
49) Cc1sc(N)c(C(=O)c2ccccc2Cl)c1C
50) Cc1ccccc1NC(=S)NC(C)C(c1ccccc1)N1CCN(C)CC1 (centres undefined)

assay / compound	41	42	43	44	45	46	47	48	49	50
eIF4H inh	-11	5	-3	4	-9	-8	-2	2	1	1
CSC inhib	4	73	-2	-2	-12	-11	-11	.	-2	.
Rce1 inh	i	i	.	i	i	i	i	i	i	i
MT1-MMP act inh	-4	1	-3	2	0	0	0	2	0	-9
MT1-MMP act inh RFP	0	-5	2	2	-12	-3	3	3	-3	-2
UUG fidelity	4	-18	.	-3	3	-8	-14	-12	-15	.
Env fusion inh	-75	.	-23	.	16	12	-3	-4	4	16
PABP FP inh	8	-4	4	4	-6	-14	7	1	12	0

51) CC(=O)Nc1cccc(-c2ccnc3c2CC(C)(C(=O)NCc2ccccc2)O3)c1 (centres undefined)
52) CCOC(=O)CSc1nc2sc3c(c2c(=O)n1-c1ccc(C)cc1)CCN(C)C3
53) Cc1cccc(C)c1NC1=NC(=S)N(c2ccccc2)C12CCOC(C)(C)C2 (centres undefined)
54) COc1ccc(C#Cc2cccc(-c3nc(C(=O)N4CCN(C)CC4)cc4c3[C@H](CCO)N(S(=O)C(C)(C)C)C4)c2)cc1OC (some centres undefined)
55) C=CCn1c(CNC(=O)c2cccs2)n[nH]c1=S
56) CN(Cc1ccco1)S(=O)(=O)c1ccc2c(c1)CCN2C(=O)CCC(=O)O
57) CN(C)c1ccc(CNc2nc3cc(-c4ccc(F)cc4)sc3c(=O)n2C)cc1
58) CCN1C(=O)[C@@H]2[C@@H](c3ccc(-c4ccc(F)cc4)c(OC)c3)N3CCC[C@@]3(C(=O)OC)[C@@H]2C1=O
59) CCOc1ccc2c(c1)OC1(CCC(C)C1)CC2=O (centres undefined)
60) O=C(Cn1cc2c(n1)CCCCC2)N1CCc2ccccc2C1
61) CCOC(=O)CN1CC23C=CC(O2)C(C(=O)N2CCN(c4ccc(F)cc4)CC2)C3C1=O (centres undefined)
62) CCOc1c2ccc(C(=O)NC3CCCc4ccccc43)cc2nn1C (centres undefined)
63) Cc1cc(C)c(NC(=O)C2CCCN2C(=O)NC2CCCCC2)c(C)c1 (centres undefined)

assay / compound	51	52	53	54	55	56	57	58	59	60	61	62	63
eIF4H inh	.	14	-4	.	-9	3	.	.	.	1	5	15	-1
CSC inhib	.	-3	1	.	0	.	.	.	-6	6	-20	-8	2
Rce1 inh	.	i	i	.	i	i	.	.	i	i	i	i	.
MT1-MMP act inh	19	-3	-1	2	6	1	5	3	1	2	1	2	6
MT1-MMP act inh RFP	2	-3	-6	4	3	4	-26	-4	0	-2	4	3	2
UUG fidelity	3	-20	.	1	21	.	-32	14	-7	-9	-6	8	-18
Env fusion inh	-105	21	.	5	.	-10	-1	7	-4	-6	-18	3	-31
PABP FP inh	.	4	1	.	4	-4	.	.	.	-6	0	-7	0

Part of the list above, with values under each structure.
Values run as follows: eIF4H inh, CSC inhib, Rce1 inh, MT1-MMP act inh, MT1-MMP act inh RFP, UUG fidelity, Env fusion inh, PABP FP inh
(40) Cc1cc(NS(=O)(=O)c2ccc(NC(=O)c3cc(-c4cccnc4)nc4ccc(Cl)cc34)cc2)no1
→ -10, -6, i, 8, -1, -17, -41, 3
(41) Cc1cc(OC(=O)c2c(Cl)cccc2Cl)nc(C)n1
→ -11, 4, i, -4, 0, 4, -75, 8
(42) Cc1cccc2c1N(CCCOc1ccc(C(C)(C)C)cc1)C(=O)C2=O
→ 5, 73, i, 1, -5, -18, ., -4
(43) O=P(COCCOCCOCCOCP(=O)(c1ccccc1)c1ccccc1)(c1ccccc1)c1ccccc1
→ -3, -2, ., -3, 2, ., -23, 4
(44) COc1cccc(Cn2cc(-c3cccc(C(F)(F)F)c3)nn2)c1
→ 4, -2, i, 2, 2, -3, ., 4
(45) C=CCNC(=O)COC(=O)c1oc2ccccc2c1CSC1CCCCC1
→ -9, -12, i, 0, -12, 3, 16, -6
